High-throughput results (PubChem)
Tgondii IFNg = T. gondii growth inhibition under IFN-gamma; actives 3.8% (n = 69,000); activity change, negative = inhibition, %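 (about 20 µM by stock and volumes)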; Toxoplasma gondii growth in IFN-gamma-treated host cells; hits give low values; reference of the scale not given here; AID 1259416;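 active means below -70%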;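 further: host cells are HeLa cells infected with Toxoplasma gondii; parasite growth read as luciferase light; one replicate is shown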
An asterisk follows results filed as active; i = inactive; & = joins results of further samples. The list is partial, so the mix of outcomes need not match the whole.

SMILES | Tgondii IFNg
COc1cc(C2CC(=O)NC3=C2C(=O)CC(C)(C)C3)ccc1O (stereo unspecified) | 15
C[C@H](CO)N1C[C@H](C)[C@@H](CN(C)Cc2ccncc2)Oc2ccc(NS(=O)(=O)c3ccc(F)cc3)cc2CC1=O | -54
CN1CC[C@@]2(CN(Cc3ccco3)C[C@H]2c2ccccc2)C1=O | 2
COc1cccc(S(=O)(=O)Nc2ccc3c(c2)C(=O)N(C)C[C@@H](OC)[C@@H](C)CN(Cc2ccccc2F)[C@@H](C)CO3)c1 | 29
COCCCn1c(-c2ccncc2)n[nH]c1=S | -11
O=C([C@H]1[C@H](CO)[C@H]2Cn3c(ccc(C4=CCCCC4)c3=O)[C@@H]1N2)N1CCC(Cc2ccccc2)CC1 | -64
CC(=O)N1CCC2(CC1)OC(=O)C(C)=C2C(=O)NCCC(C)C | 67
Cc1nn(Cc2nc(-c3ccc(NC(=O)c4ccccc4)cc3)oc2C)c(C)c1C | -93*
CCc1cc(N2CCN(S(=O)(=O)CC)CC2)nc(N2CCOCC2)n1 | -40
Cc1c(C(=O)N2CCCCC2)sc2nc(C(F)(F)F)nn12 | 8
CCN1C(=O)CO[C@H]2CN(c3cc(C(F)(F)F)ncn3)C[C@@H]21 | 10
C=CCOC1C2CCC1N(C(=O)c1ccccn1)C2 (stereo unspecified) | 34
CCCC(=O)N1CCC(C)(C(=O)NCc2ccc(F)cc2F)CC1 | 21
Cc1nc(SCC(=O)NCC2CCCOC2)oc1C (stereo unspecified) | 6
Clc1cccc2c3c([nH]c12)CCN(Cc1cc2n(n1)CCCNC2)C3 | 1
CNC[C@H]1Oc2ccc(N)cc2CC(=O)N([C@@H](C)CO)C[C@H]1C | -18
CCOC(=O)c1[nH]ncc1CN1CCCC(c2nn(C)c(=O)n2CC)C1 (stereo unspecified) | 129
CN(C)c1ccc(-c2nnc(-c3ccc(S(=O)(=O)C(F)F)cc3)o2)cc1 | 232
CC(C)NC(=O)Cn1nnc(C(N)=O)c1N | -10
CCCC(=O)N1CCC2(CC1)CN(C(=O)Cc1ccccn1)[C@H](CO)c1[nH]c3cc(OC)ccc3c12 | 118
Cc1ccc2c(CN3CCN(Cc4nc(-c5ccccc5Cl)oc4C)CC3)cc(=O)oc2c1 | 8
CC(C)CC#Cc1ccc([C@@H]2[C@H](CO)N3C(=O)CN(C(=O)c4cccc(F)c4)C[C@@H]23)cc1 | -49
O=C(NC1CCC1)[C@H]1C[C@H]2CN(Cc3ccc(F)cc3)C[C@H]1O2 | -20
COc1ccc(-c2ccnc(N)c2)c(OC)c1 | -7
COc1ccc(-c2ccccc2[C@@H]2[C@@H](C#N)N(C(=O)NC(C)C)[C@H]2CO)cc1 | 24

For reference, part of the list above.
SMILES | Tgondii IFNg
Cc1c(C(=O)N2CCCCC2)sc2nc(C(F)(F)F)nn12 | 8
CCN1C(=O)CO[C@H]2CN(c3cc(C(F)(F)F)ncn3)C[C@@H]21 | 10
C=CCOC1C2CCC1N(C(=O)c1ccccn1)C2 (stereo unspecified) | 34

The main list resumes; the 2 compounds before the break are reprinted first.
SMILES | Tgondii IFNg
COc1ccc(-c2ccnc(N)c2)c(OC)c1 | -7
COc1ccc(-c2ccccc2[C@@H]2[C@@H](C#N)N(C(=O)NC(C)C)[C@H]2CO)cc1 | 24
O=c1oc2ccc3ccccc3c2cc1-c1csc(-c2ccccc2)n1 | 23
CC(C)CC(=O)N1CCC(n2nnc3ccccc3c2=O)CC1 | -46
COC(=O)C(c1ccccc1Cl)N1CCc2sccc2C1 (stereo unspecified) | 10
CS(=O)(=O)Nc1ccc(-n2cnc(-c3ccccc3)c2)cn1 | 12
C1N2CN3CN1CN(C2)C3 | 13&14
CN(Cc1ccnc2ccccc12)CC1CC(=O)N(C2CCCC2)C1 (stereo unspecified) | -3
Cc1cccc(-c2nc(C)c(CCNS(=O)(=O)c3ccccc3F)s2)c1 | i
Cn1ccnc1CN1CCC2(CC1)CN(C(=O)c1cccnc1)CCO2 | -18
CN(C)C(=O)N1C[C@H](OCCCn2cccn2)[C@@H]2OCCC[C@@H]21 | 4
CN(C)c1ccc(C(=O)c2ccccc2C(=O)O)c(O)c1 | -22
O=C(NC1CCCCCC1)C1CC(=O)N(CCc2c[nH]c3ccc(Cl)cc23)C1 (stereo unspecified) | 48
O=c1ccc2cc(S(=O)(=O)N3CCN(CCOc4ccc(Cl)cc4)CC3)ccc2[nH]1 | 56
NCC1CC(=O)N(Cc2ccccc2)C1 (stereo unspecified) | 6
COc1ccc(C(=O)CC2(O)C(=O)Nc3ccc(C)cc32)c(OC)c1 (stereo unspecified) | 12
CCS(=O)(=O)N1C[C@H]2C[C@H](C(=O)Nc3ccccc3)[C@@H](C1)O2 | 2
C/C=C/c1ccc([C@@H]2[C@@H](CNC(=O)CC3CC3)N(C(=O)CC)[C@H]2CO)cc1 | -30
Cc1ccc(NC(=O)c2ccccc2N(Cc2ccccc2)S(C)(=O)=O)cc1C | 0
c1ccc2oc(N3CCN(Cc4ccc(C5CCCO5)s4)CC3)nc2c1 (stereo unspecified) | -4
O=C(CCSc1nc(-c2ccc3c(c2)OCO3)cc(C(F)(F)F)n1)N1CCCCC1 | -76*
COC[C@H]1CN(C)C[C@@]12CCN(C(=O)COc1ccccc1C)C2 | 6
O=C(c1ccccc1S(=O)(=O)Cc1ccccc1)N1CC[C@H](O)[C@@H](O)C1 | 1
FC(F)(F)COc1nc(NCc2ccccc2)nc(OCC(F)(F)F)n1 | -70
C=CCn1c(=O)c(C(=O)Nc2ccc(C)c(Cl)c2)c(O)c2ccccc21 | 40
CCCCn1ncc(C)c1NC(=O)c1cccc(CN2CC[C@H](O)C2)c1 | -1
COc1ccc(NC(=O)N(C)C[C@@H]2OCc3cnnn3CCCC(=O)N([C@@H](C)CO)C[C@H]2C)c(OC)c1 | i

Part of the list above, as labelled records.
COCCCn1c(-c2ccncc2)n[nH]c1=S
  Tgondii IFNg: -11
O=C(CCSc1nc(-c2ccc3c(c2)OCO3)cc(C(F)(F)F)n1)N1CCCCC1
  Tgondii IFNg: -76*

(more compounds)
SMILES | Tgondii IFNg
COc1ccccc1-c1ccc([C@H]2[C@@H](CO)N(CC3CC3)C23CN(S(C)(=O)=O)C3)cc1 | -31
Cc1ccc(OCCS(=O)(=O)N2CCN3C(=O)CNC(=O)C3C2)cc1 (stereo unspecified) | 10
Cc1ccc(-c2nnc(-c3nc(NCCN4CCCC4)c4ccccc4n3)o2)cc1 | -69
Cc1ccc2nc(-c3ccc(NC(=O)c4ccc5c(c4)OCCO5)cc3)oc2c1 | -67
O=C(NCc1ccco1)c1c(O)c2ccccc2[nH]c1=O | -2
O=C(CSc1nnc(Cc2ccccc2)n1Cc1ccccc1)c1ccc(Cl)s1 | -12
Cc1ccc2c(N3C[C@H]4C[C@H](O)[C@H](O)C[C@H]4C3)ccnc2c1C | -2
CN1C[C@@H]2C3(CCN(S(=O)(=O)C4CC4)CC3)CC[C@@]2(C(=O)N(C)C)C1 | -1
Cc1noc(C)c1S(=O)(=O)N(C)C[C@H]1OCc2ccccc2-c2c(n(C)c3ccccc23)C(=O)N([C@H](C)CO)C[C@H]1C | -51
O=C(Cc1c[nH]c2ccccc12)OCC(=O)c1ccccc1 | 1
COc1ccccc1Oc1c(NS(=O)(=O)c2ccc(C(C)(C)C)cc2)nc(-c2ncccn2)nc1OCCO | 2
COCCN1C(=O)CCC12CCC(NCc1cnn(C)c1)CC2 (stereo unspecified) | 1
Cc1ncc(C(=O)N2CCCC3(CNC(=O)O3)C2)c(-c2ccccc2)n1 (stereo unspecified) | -22
CCOc1ccccc1C(=O)N1CCC2(CC1)Nc1ccc(Cl)cc1-n1cccc12 | -104*
O=C(c1cccnc1)N1CC(=O)N2[C@@H](CO)[C@H](c3ccc(-c4ccccc4F)cc3)[C@@H]2C1 | 7
CCN1c2ccc(C)cc2C(=O)NC12CCN(C(=O)Cc1ccccc1)CC2 | -7
O=C(O)C1CC(N2CCCC2)CCN1C(=O)c1cccs1 (stereo unspecified) | -2
O=C(O)C1Cc2c([nH]c3ccccc23)C(c2ccccc2)N1 (stereo unspecified) | 25
CN(C)C(=O)c1cccc(-c2ccccc2[C@H]2[C@@H](CO)N(C(=O)C3CCCCC3)[C@H]2C#N)c1 | -17
CN1CCN(CCCN2c3ccccc3Sc3ccc(Cl)cc32)CC1 | 2&-14
Cc1ccc2c(c1)cc(S(=O)(=O)c1ccccc1)c(=O)n2CC(=O)NCc1ccc(F)cc1 | -15
O=C(O)CNS(=O)(=O)c1ccc(-c2ccccc2)cc1 | -3
Cn1ncc2c1C(COCC1CC1)N(Cc1ccco1)CC2 (stereo unspecified) | -5
CO[C@@H]1CN(C)C(=O)c2cc(NC(=O)Cc3ccccc3)ccc2OC[C@H](C)N(C(=O)c2ccccc2F)C[C@H]1C | -15
COCC(=O)N1CC(=O)N2[C@H](C1)[C@H](c1ccc(-c3ccncc3)cc1)[C@@H]2CO | -1

7 records drawn at random from those above:
SMILES | Tgondii IFNg
Cc1ccc2c(N3C[C@H]4C[C@H](O)[C@H](O)C[C@H]4C3)ccnc2c1C | -2
COCCCn1c(-c2ccncc2)n[nH]c1=S | -11
Cc1c(C(=O)N2CCCCC2)sc2nc(C(F)(F)F)nn12 | 8
O=C([C@H]1[C@H](CO)[C@H]2Cn3c(ccc(C4=CCCCC4)c3=O)[C@@H]1N2)N1CCC(Cc2ccccc2)CC1 | -64
O=C(CSc1nnc(Cc2ccccc2)n1Cc1ccccc1)c1ccc(Cl)s1 | -12
Cc1ccc(OCCS(=O)(=O)N2CCN3C(=O)CNC(=O)C3C2)cc1 (stereo unspecified) | 10
Clc1cccc2c3c([nH]c12)CCN(Cc1cc2n(n1)CCCNC2)C3 | 1

The list continues.
SMILES | Tgondii IFNg
CN(C)c1ncc(-c2ccccn2)c(CN(Cc2ccccc2)C(=O)C2CC3C=CC2O3)n1 (stereo unspecified) | 63
Cc1cc(C)n2nc(C)c(C(=O)N3CCCC4(CC3)CNC(=O)O4)c2n1 (stereo unspecified) | -2
CC(C)NC(=O)C1(Cc2ccccc2-c2ccccc2F)CCN(C(=O)C2CCCO2)C1 (stereo unspecified) | 1
NCc1cn(CC2CCCN(C(=O)NC34CC5CC(CC(C5)C3)C4)C2)nn1 (stereo unspecified) | -1
Cc1ccccc1-c1nc(Cn2cnc3nc4c(cc3c2=O)CC(C)CC4)c(C)o1 (stereo unspecified) | 9
CCN(Cc1cnn(C)c1)C(=O)c1ccc(-c2ncn[nH]2)cc1 | -4
Cc1n[nH]c(C)c1CCCN(C)c1cc(N(C)C)ncn1 | 0
CCOC(=O)c1c(C)csc1NC(=O)CSc1ccc(Cl)cc1 | -36
Cn1nc(C(F)(F)F)c(-c2ccccc2)c1NC(=O)c1ccccc1 | -6
Cc1cnc(N2Cc3ccnn3CC(COCC(=O)N(C)C)C2)nc1 (stereo unspecified) | 6
Cc1c(C(=O)NC(C)(C)CN2CCOCC2)sc2ncn(C)c(=O)c12 | -5
CCOCCN1Cc2ncn(C)c2C(COCc2csc(C)n2)C1 (stereo unspecified) | -4
N#C[C@H]1[C@@H](c2ccccc2-c2cccc(F)c2)[C@H](CO)N1C(=O)CN1CCOCC1 | -24
CNc1nc(C2CCCN2S(=O)(=O)c2ccc(OC)cc2)nc2c1CCN(C)C2 (stereo unspecified) | 7
COC(=O)c1ccc(NC(=O)Nc2ccc(-c3nc(-c4ccccc4)co3)cc2)cc1 | 123
c1c[nH]c(CN2CCCn3nnc(COCC4CC4)c3C2)c1 | 38
N#Cc1cc(Br)c(OCc2c(F)cccc2Cl)c(Br)c1 | -78*
O=C(Cn1nnc(-c2ccc(Cl)cc2)n1)NCCCN1CCOCC1 | -54
CCCCCCCC/C=C\CCCCCCCC(N)=O | 5
COCC12CCCOC1CCN(C(=O)N1CCCC1)C2 (stereo unspecified) | 34
CCC(=O)N1[C@H](CO)[C@@H](c2ccccc2)C12CN(C(=O)c1ccc3c(c1)OCO3)C2 | 27
O=C(c1cc(-c2ccccc2F)n[nH]1)N1CCOC2(CNCCOC2)C1 (stereo unspecified) | 16
Cc1nnc(SCCCNC(=O)C2Cc3ccccc3CN2C)s1 (stereo unspecified) | -3
Cc1cccc(-c2ccc([C@@H]3[C@@H](CO)N4CCCCN(S(=O)(=O)c5ccccc5F)C[C@H]34)cc2)c1 | -48
COc1ccc(-c2nc(Cn3cnc4onc(C)c4c3=O)c(C)o2)c(OC)c1 | 56
Following part
SMILES | Tgondii IFNg
O=C1COC2(CNCCOC2)CN1c1ccc(F)cc1 (stereo unspecified) | 82
COc1cccc(OCC(=O)NCCc2sc(-c3ccc(Cl)cc3)nc2C)c1 | 44
COc1cc2ccc(=O)oc2c(O)c1OCC=C(C)C | 32
C/C=C/c1cccc(-c2nc(C(=O)NCCN3CCCCC3)cc3c2[C@@H](CCO)N([S@](=O)C(C)(C)C)C3)c1 | -37
COCCC(=O)c1c2c(N3CCN(C)CC3)ncnc2n2ccccc12 | -1
COc1c/c(=C2\C=c3ccccc3=N2)[nH]/c1=C\c1[nH]c(C)cc1C | -85*
CCCCC1CCC(c2ccc(/C=C/c3ccccc3)nc2)CC1 (stereo unspecified) | -2
O=S1(=O)CS(=O)(=O)Oc2ccccc2O1 | -31
CCN1CCC2(CC1)OC(=O)C(C)=C2C(=O)Nc1ccccc1C | 100
Brc1ccc(C2=Nn3c(Cn4nnc5ccccc54)nnc3SC2)cc1 | -23
O=C(O)CSc1nnc(CCc2ccccc2)n1-c1cccnc1 | -1
COCCN1C(=O)CCc2cc(NS(=O)(=O)c3ccc(C)c(F)c3)ccc21 | -6
COc1cc(-c2noc(-c3nnn(Cc4nc(-c5ccccc5)oc4C)c3C)n2)cc(OC)c1OC | -15
CN(CC1COCCO1)C(=O)c1coc(COc2ccc3ncccc3c2)n1 (stereo unspecified) | 4
